# CBX7 AlphaScr: inhibitors of human CBX7 binding to H3K27me3 peptide. O95931. AlphaScreen His6-CBX7 / biotin-H3K27me3 peptide binding; hits give low values. normalised signal (fraction of DMSO) (test concentration not listed). 66,000 tested, 1.1% active. AID 1224903; in the data active means normalised signal below about 0.5;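 further: 100 nL library stock added to about 20 µL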
# Target sequence (O95931 whole entry, looked up): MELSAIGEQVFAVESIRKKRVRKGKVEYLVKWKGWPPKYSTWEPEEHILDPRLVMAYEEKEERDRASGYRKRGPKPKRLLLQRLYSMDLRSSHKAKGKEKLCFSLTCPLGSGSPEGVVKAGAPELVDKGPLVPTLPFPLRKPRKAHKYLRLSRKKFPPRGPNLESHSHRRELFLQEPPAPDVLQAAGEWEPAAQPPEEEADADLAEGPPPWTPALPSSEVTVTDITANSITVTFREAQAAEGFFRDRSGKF
# CBX7 AlphaScr z-score: recorded beside CBX7 AlphaScr, whose call it bears; z-score; measured here: z-score of CBX7 signal; some inactives read as strong as hits; reference of the scale not given here;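 same signal on another scale; lower means less binding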
# An asterisk follows results filed as active; & = joins results of further samples. These rows are one share of the data; the hit share may differ from the screen's.
SMILES,CBX7 AlphaScr,CBX7 AlphaScr z-score
COc1ccc(Cl)cc1NC(=O)C1c2cc(OC)c(OC)cc2C(=O)N2CCCCC12 (stereo not drawn),0.98,-0.69
Fc1ccc(C2NCc3ccccc3-n3cccc32)cc1 (stereo not drawn),0.9,-3.1
CC(C)CCNC(=O)CN1C(=O)CN=C(c2ccccc2Cl)c2cc(Cl)ccc21,0.94,-1.7
Cc1cccc(-c2nc(CN3C(=O)CN=C(c4ccccc4)c4ccccc43)c(C)o2)c1,0.92,-3.8
CCC(C)C1N=C(c2ccccc2Cl)c2cc(Cl)ccc2N(CC(=O)N2CCCC2)C1=O (stereo not drawn),1,-0.023
c1cc2n(c1)-c1c(ccc3c1OCO3)CNC2c1ccc2c(c1)OCO2 (stereo not drawn),0.75,-8.8
COc1cc2c(cc1OC)C(C(=O)Nc1ccc(C)c(F)c1)C1CCCCN1C2=O (stereo not drawn),1.1,1
COc1ccc(-n2c(/C=C/c3ccc(Cl)cc3)nc3ccccc3c2=O)cc1,0.92,-0.87
FC(F)(F)c1ccccc1C1NCc2ccccc2-n2cccc21 (stereo not drawn),0.93,-2.5
CC(=O)c1ccc(C(=O)Nc2ccc(Br)cc2C(=O)c2ccccc2Cl)cc1,0.96,-1.5
COc1ccc(CNCCC2(c3ccccc3)CCOC(C)(C)C2)cc1OC (stereo not drawn),1,0.22
CC1N=C(c2ccccc2)c2cc(Cl)ccc2N(Cc2cc(=O)n3ccccc3n2)C1=O (stereo not drawn),0.91,-0.41
CSc1ccc(CN2CCN(Cc3ccc(Cl)cc3)CC2)cc1,0.85,-2.6
Cc1cc(C)cc(-n2c(/C=C/c3cccc(F)c3)nc3ccccc3c2=O)c1,0.99,-0.6
O=C(Cn1ncc2ccsc2c1=O)N1CCC2(CC1)OCCO2,1,0.55
COc1ccccc1-n1c(/C=C/c2ccccc2)nc2ccccc2c1=O,1,0.5
Cc1c(C(=O)N2CCC3(CC2)OCCO3)oc2ccc(S(=O)(=O)N3CCCCCC3)cc12,0.88,-2.2
O=S(=O)(c1ccccc1)N1CCCCC1c1cccnc1 (stereo not drawn),1,0.68
COc1ccc(Cl)cc1C(=O)Nc1ccc(Br)cc1C(=O)c1ccccc1,1.1,1.4
CCc1ccc(C2NCc3ccccc3-n3cccc32)cc1 (stereo not drawn),0.84,-8.5
CNc1ccc(C)cc1C(=O)c1ccc(Br)cc1,0.53,-12
O=C(Cn1nc(-c2ccc(Cl)cc2)ccc1=O)N1CCC2(CC1)OCCO2,0.98,-1
CC(=O)N1CC(=O)Nc2ccc(Br)cc2C1c1ccc(F)cc1 (stereo not drawn),0.99,-0.15
CN1CC=C(c2noc(CCC(=O)NC3CCCCC3)n2)CC1,1,2.1
Cc1cccc(-n2c(/C=C/c3ccc4c(c3)OCO4)nc3ccccc3c2=O)c1,1,-0.16
COc1cccc(/C=C/c2nc3ccccc3c(=O)n2-c2ccc(OC)c(Cl)c2)c1,1,1.5
CCOc1ccccc1CN(CCc1ccc2c(c1)OCO2)Cc1ccc(F)c(F)c1,0.47*,-4.1*
CC(C)n1[nH]c(=O)c2c1NC(=O)CSC2c1ccc(Cl)cc1Cl (stereo not drawn),1,0.45
COc1ccc(-n2c(/C=C\c3cccc(Br)c3)nc3ccccc3c2=O)cc1,1,-0.1
CCC(C(=O)Nc1ccccc1OC)N1C(=O)C(C)N=C(c2ccccc2F)c2cc(Cl)ccc21 (stereo not drawn),0.92,-1.9
FC(F)(F)c1cccc(Nc2nc3nonc3nc2Nc2cccc(C(F)(F)F)c2)c1,0.87,-1.6
COc1ccc(-n2c(/C=C/c3ccc(O)cc3)nc3ccccc3c2=O)cc1Cl,0.92,-1.2
CCC(=O)N1CC(=O)Nc2ccc(C)cc2C1c1ccccc1 (stereo not drawn),0.9,-1.1
CC(C)n1[nH]c(=O)c2c1NC(=O)CSC2c1ccc(Br)cc1 (stereo not drawn),1,0.38
O=C1CSC(c2ccc(Cl)cc2)c2c(-c3ccccc3)nn(-c3ccccc3)c2N1 (stereo not drawn),0.92,-2.7
O=C(CCN1CCCCC1)Nc1ccc(Br)cc1C(=O)c1ccccc1,0.94,-0.94
Cc1ccccc1-n1c(/C=C/c2c[nH]c3ccccc23)nc2ccccc2c1=O,1.1,2.5
CCC(C(=O)Nc1cccc(OC)c1)N1C(=O)CN=C(c2ccccc2)c2ccccc21 (stereo not drawn),0.84,-2.2
Cc1ccc(-n2c(/C=C/c3ccc(F)cc3)nc3ccccc3c2=O)cc1,1,0.17
Cc1ccc(NC(=O)CN2C(=O)CN=C(c3ccccc3)c3ccccc32)cc1F,1,0.52
Cc1ccc(NC(=O)CN2C(=O)C(C)N=C(c3ccccc3)c3ccccc32)c(Cl)c1 (stereo not drawn),0.88,-2.2
O=c1c2ccccc2nc(/C=C/c2ccccc2F)n1-c1ccc(F)c(Cl)c1,1.3,2.7
CCc1cccc(NC(=O)CN2C(=O)CN=C(c3ccccc3)c3cc(Cl)ccc32)c1,0.83,-8
Cc1cc(-n2c(/C=C/c3cccc(F)c3)nc3ccccc3c2=O)ccc1Br,0.95,-1.5
Cc1cc(C)cc(NC(=O)CN2C(=O)C(C)N=C(c3ccccc3)c3cc(Cl)ccc32)c1 (stereo not drawn),0.93,-1.9
OC(c1ccccc1)(c1ccccc1)C1CN2CCC1CC2 (stereo not drawn),1.3,2.9
COc1cc2c(cc1OC)C(C(=O)Nc1ccc(F)cc1F)C1CCCCN1C2=O (stereo not drawn),0.95,-1.5
CCC(=O)N1N=C2C3CCN(CC3)C2C1c1cccc(OC)c1 (stereo not drawn),1,0.69
CCCCNC(=O)CN1C(=O)C(C(C)CC)N=C(c2ccccc2F)c2cc(Cl)ccc21 (stereo not drawn),0.98,-0.14
Cc1cc(C)cc(-n2c(/C=C\c3ccccc3F)nc3ccccc3c2=O)c1,1,2.4

# Continued.
SMILES,CBX7 AlphaScr,CBX7 AlphaScr z-score
CN1CC=C(c2noc(CCC(=O)Nc3ccc(F)c(Cl)c3)n2)CC1,1.1,3.8
CC(C)n1[nH]c(=O)c2c1NC(=O)CSC2c1ccccc1 (stereo not drawn),0.83,-1.8
CC(C)(O)c1ccc(C(=O)C2CN3CCC2CC3)s1 (stereo not drawn),1.1,1.5
COc1ccc(OC)c(CNCCc2c(C)[nH]c3ccc(OC)cc23)c1,0.71,-0.59
CCCCn1c(C)c(C(=O)OCC)c2cc(O)ccc21,1.1,1.5
Clc1ccc(C2CC(c3cccnc3)Nc3ncnn32)cc1 (stereo not drawn),1,0.38
COc1ccc(Nc2ncc(C(=O)N3CCC4(CC3)OCCO4)c3ccccc23)cc1,1.1,1.4
COc1ccc(C(=O)Nc2ccc(Cl)cc2C(=O)c2ccccc2Cl)cc1OC,0.96,-0.18
CCOc1ccccc1NC(=O)C(CC)N1C(=O)CN=C(c2ccccc2)c2cc(Cl)ccc21 (stereo not drawn),0.78,-3.2
COc1ccccc1-n1c(/C=C/c2cccnc2)nc2ccccc2c1=O,0.78&1.1,-2.6&1.3
COc1cccc(/C=C/c2nc3ccccc3c(=O)n2-c2cccc(F)c2)c1OC,0.97,-1.3
CCC(C)C1N=C(c2ccccc2)c2ccccc2NC1=O (stereo not drawn),0.91,-2.5
Cc1nc2c(C(=O)N3CCC4(CC3)OCCO4)cnn2c(C)c1Cc1cccc(Cl)c1,1,0.26
COc1ccc(-n2c(/C=C/c3ccccc3F)nc3ccccc3c2=O)cc1Cl,1.1,1.7
COc1cc(/C=C/c2nc3ccccc3c(=O)n2-c2ccccc2OC)ccc1O,1.1,2.8
FC(F)(F)c1cccc(-n2nnnc2C2(N3CCOCC3)CCCCC2)c1,0.92,-0.77
CSc1ccc(CN2CCN(Cc3ccccc3Br)CC2)cc1,0.92,-1.4
C=CCOc1ccc(C2SCC(=O)Nc3c2c(=O)[nH]n3C2CCCCC2)cc1 (stereo not drawn),1,1.5
COc1ccc(CN2CCN(Cc3cccc(Cl)c3)CC2)cc1,0.82,-2.2
COc1cccc(-n2c(/C=C\c3ccc(Cl)cc3)nc3ccccc3c2=O)c1,1.1,0.35
COc1ccc(/C=C/c2nc3ccccc3c(=O)n2-c2ccc(C)c(C)c2)cc1,0.86,-2.1
Cc1ccc(-n2c(/C=C/c3ccc(O)cc3)nc3ccccc3c2=O)cc1C,1,0.41
COc1cccc(NC(=O)CN2CC(c3ccccc3)CC2=O)c1 (stereo not drawn),0.98,-0.42
Cc1cccc(-n2c(/C=C\c3ccccc3F)nc3ccccc3c2=O)c1,1,0.75
Cc1cccc(CN2C(=O)CN=C(c3ccccc3)c3ccccc32)c1,1.1,1.3
O=C1CN=C(c2ccccc2)c2ccccc2N1CCOc1ccccc1,0.99,-0.23
Cc1cccc(-n2c(CSc3nc4ccccc4s3)nc3ccccc3c2=O)c1C,1.1,0.29
O=C1CSC(c2ccc(Cl)cc2Cl)c2c(n(C3CCCCC3)[nH]c2=O)N1 (stereo not drawn),1,0.043
O=C(CN1C(=O)CN=C(c2ccccc2)c2cc(Br)ccc21)NCCc1ccccc1,0.92,-1.3
CCOC(=O)c1c(C)n(Cc2ccccc2)c2ccc(O)cc12,1,-0.019
CCN(CC)C(=O)C1C2c3ccccc3C(c3ccccc32)C1C(=O)O (stereo not drawn),0.98,-0.19
CN1CCN(C(=O)Cc2c(C(=O)O)[nH]c3ccc(Cl)cc23)CC1,1,0.52
CCOc1cc2c(cc1OCC)-n1cccc1C(c1ccc(OC(F)F)cc1)NC2 (stereo not drawn),0.6,-1.4
CN(C)c1ccc(C2SCC(=O)Nc3c2c(-c2ccccc2)nn3-c2ccccc2)cc1 (stereo not drawn),0.42*,-6.7*
Cc1cccc(CN2CCN(CC(=O)N3CCC4(CC3)OCCO4)C2=O)c1,1.1,1.7
COc1ccc(/C=C/c2nc3ccccc3c(=O)n2-c2ccc(C)cc2)cc1,1.1,3.8
O=C1CN=C(c2cccc(Br)c2)c2cc(Cl)ccc2N1,0.99,-0.25
CCOC(=O)c1c(C)n(CC(C)C)c2ccc(O)cc12,0.9,-1.1
O=C(Nc1ccc(Cl)c(Cl)c1)N1C[C@H]2C[C@@H](C1)c1cccc(=O)n1C2,0.97,-0.38
COc1ccccc1NC(=O)CN1C(=O)CN=C(c2ccccc2)c2cc(Cl)ccc21,0.96,-0.66
CC(=O)c1c(C)n(CCCOC(C)C)c2ccc(O)cc12,1,0.44
CN1CCN(c2nnc(C(F)(F)F)s2)CC1,0.97,-0.4

# Among those listed so far, 11 have bromine:
SMILES,CBX7 AlphaScr,CBX7 AlphaScr z-score
CC(=O)c1ccc(C(=O)Nc2ccc(Br)cc2C(=O)c2ccccc2Cl)cc1,0.96,-1.5
COc1ccc(Cl)cc1C(=O)Nc1ccc(Br)cc1C(=O)c1ccccc1,1.1,1.4
CNc1ccc(C)cc1C(=O)c1ccc(Br)cc1,0.53,-12
CC(=O)N1CC(=O)Nc2ccc(Br)cc2C1c1ccc(F)cc1 (stereo not drawn),0.99,-0.15
COc1ccc(-n2c(/C=C\c3cccc(Br)c3)nc3ccccc3c2=O)cc1,1,-0.1
CC(C)n1[nH]c(=O)c2c1NC(=O)CSC2c1ccc(Br)cc1 (stereo not drawn),1,0.38
O=C(CCN1CCCCC1)Nc1ccc(Br)cc1C(=O)c1ccccc1,0.94,-0.94
Cc1cc(-n2c(/C=C/c3cccc(F)c3)nc3ccccc3c2=O)ccc1Br,0.95,-1.5
CSc1ccc(CN2CCN(Cc3ccccc3Br)CC2)cc1,0.92,-1.4
O=C(CN1C(=O)CN=C(c2ccccc2)c2cc(Br)ccc21)NCCc1ccccc1,0.92,-1.3
O=C1CN=C(c2cccc(Br)c2)c2cc(Cl)ccc2N1,0.99,-0.25

# From PubChem BioAssay
